# High-throughput results as filed in PubChem BioAssay.
# HSD17B inh – inhibitors of human HSD17B10 dehydrogenase | Q99714 | recombinant HSD17B10, NADH fluorescence kinetic; many of its hits are not listed in these tables | Potency, µM (top dose mostly 57.1 µM), for inactives: at the top dose activity change, negative = inhibition, most hits filed as inhibitors | 7.6% of 75,000 active | AID 893; active = well fitted inhibition curve with a large enough effect; inconclusive = small, poorly fitted or top-dose-only effect; inactive = no such curve, though single readings can be large or run the other way;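 note: the protocol describes HADH2 (HSD17B10) and not the HSD17B4 of the title; nearly all actives have a fitted effect of over 70% in size; most hits overshoot -100% by far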
#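 20 nM HADH2, pH 9.0 Tris/Tween; cpd preinc 15 min RT; start w/ 1 mM NAD+ + 90 uM b-hydroxybutyryl-CoA; kinetic fluor ex360/em450 q30s x 4 min; delta last-first.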
# An asterisk follows results filed as active; ? = inconclusive; & = joins results of further samples; [ ] = dose if it differs, or a comment. % is set by controls: 0 for no effect and ±100 for the full control effect; potency is the fitted concentration of half-maximal effect. A portion of the library. The share of hits here may be higher or lower than overall.
SMILES,HSD17B inh
CCC(C)c1ccc(O)c(NC(=O)c2cccnc2)c1 (stereo not drawn),2%
COc1ccc(-c2ccc(CCC(=O)O)n2NC(=O)c2cccs2)cc1,-26%
COc1ccc(C(=O)Nc2cccc(C(C)=O)c2)cc1OC,4%
Cc1cc(C)c(S(=O)(=O)N2CCN(CCO)CC2)c(C)c1,2%
CCn1c(=O)c2cc(C(=O)Nc3cc(C)on3)sc2c2ccccc21,?
COC(=O)c1cn(CC(=O)NCc2cccs2)c2ccccc12,-3%
C=CCN1CCc2cc(O)c(O)cc2[C@H](c2ccccc2)C1,32µM*
COc1ccccc1NC(=O)N(Cc1ccccc1)c1ccccn1,4%
O=C(CSc1nc2ccccc2n1CC(=O)N1CCCC1)N1CCN(C(=O)c2ccco2)CC1,2%
Cc1ccnc(NC(=O)Nc2ccc3c(c2)N(C)C(=O)CS3)c1,-11%
Cc1ccc2c(c1)c1c(n2C)C(C(N)=O)CCC1 (stereo not drawn),?
O=C(COC(=O)c1cncc(Br)c1)NCCC1=CCCCC1,-6%
Cc1ccc(S(=O)(=O)C(C#N)c2nc3ccccc3nc2OC(C)C)cc1 (stereo not drawn),-5%
COC(=O)c1ccccc1NC(=O)CSc1nccn1C,-5%
CN1CCc2c(sc3nc(SCC(N)=O)n(-c4ccccc4)c(=O)c23)C1,-21%
COc1ccccc1NC(=O)Cc1noc(CSc2cc(C)c3ccccc3n2)n1,-9%
COc1ccc(C)cc1S(=O)(=O)N(CC(=O)O)c1ccc(F)cc1,2%
COc1cc(NC(=O)CN2CCN(S(=O)(=O)c3ccc(C(C)C)cc3)CC2)cc(OC)c1,-6%
O=C(O)CN1C(=O)COc2cc(S(=O)(=O)N3CCCC3)ccc21,-3%
COc1ccc(Cl)cc1NC(=O)C1CSC(c2ccncc2)=N1 (stereo not drawn),-20%
CC(=O)Nc1ccc(NC(=O)Cn2cc3c(n2)CCCC3)cc1,2%
NC1=NC(c2ccc(Br)cc2)n2c(nc3ccccc32)N1 (stereo not drawn),1%
COc1ccc(CCN2C(=O)CC(Nc3ccc(N4CCOCC4)cc3)C2=O)cc1OC (stereo not drawn),3%
COc1ccccc1CN(Cc1ccco1)S(=O)(=O)c1ccc(-n2cnnn2)c(OC)c1,-4%
O=C1C2=C(c3ccccc31)[N+](=O)[C@@H]1CCCC[C@@H]1N2[O-],-6%

# (cont.)
SMILES,HSD17B inh
C/C=C(\C)C(=O)OC1c2c(ccc3ccc(=O)oc23)OC(C)(C)C1OC(C)=O (stereo not drawn),?
COC(=O)c1ccc(NC(=O)CN(C2CCCCC2)S(C)(=O)=O)cc1,-26%
O=C(c1cc2nc(-c3ccccc3)cc(C(F)(F)F)n2n1)N1CCOCC1,-7%
COC(=O)[C@@H]1C[C@H]1[C@@H](NS(=O)(=O)c1ccc2ccccc2c1)c1ccccc1,2%
CCCCC(=O)Nc1ccc(Cl)cn1,2%
Cc1nc(SCCO)c2oc3ccccc3c2n1,4%
Cc1nnc(NC(=O)CSc2nnc(Cc3cccn3C)n2-c2cccc(C)c2C)s1,-5%
O=C1CCCc2nc(N3CCCCC3)sc21,2%
COCCn1c(=O)[nH]c2cc(C(=O)OC)ccc2c1=O,25µM*
CCSc1nnc(NC(=O)Cc2ccc(OC)c(S(=O)(=O)N3CCOCC3)c2)s1,1%
Cc1cc(O)c(-c2cc(C(=O)Nc3ccc(S(=O)(=O)N4CCOCC4)cc3)[nH]n2)cc1C,4%
Cc1sc2nc(-c3ccco3)oc(=O)c2c1C,-29%
COc1ccccc1CC(=O)Nc1ccc(-c2nnc(-c3ccco3)o2)cc1,32µM*
COc1ccc(Oc2ncc3nc(-c4cccc(C#N)c4)c(=O)n(Cc4cccc(OC)c4)c3n2)cc1,-20%
CC1(C)Oc2ccc(C(=O)NC3CCCC3)cc2N(CC(=O)NC2CCCCC2)C1=O,0%
Cc1cc(C)cc(N(CC(=O)NCc2ccco2)C(=O)CCC(=O)Nc2ccccn2)c1,-7%
O=C(/C=C/Nc1ccc(F)cc1)c1ccco1,-5%
CCCCN(C)C(=O)c1oc2ccc(S(=O)(=O)N3CCCCCC3)cc2c1C,-8%
COCCn1nnnc1CN1CCN(c2cccc(C(F)(F)F)c2)CC1,7%
COc1ccc2c(c1)CN([C@H](C)[C@@H]1CC[C@@H]3[C@H]4CC[C@H]5C[C@@H](O)CC[C@@]5(C)[C@H]4CC[C@]31C)CO2,13%[11.4 µM]
COc1ccccc1NC(=O)Nc1nc(-c2cccnc2)nc2ccccc12,4%
O=C(Nc1ccccc1)c1ccc(NCC2CCCO2)c(S(=O)(=O)N2CCOCC2)c1 (stereo not drawn),-5%
Cn1ncc2c1ncn1nc(COc3ccc4ccccc4c3)nc21,2%
COc1ccc(C2C3=C(CC(C)(C)CC3=O)Oc3ncn(CCO)c(=N)c32)cc1OC (stereo not drawn),-1%
CNc1ncnc2ccc(-c3ccccc3C#N)cc12,3.2µM*

# Of the compounds above, eight have a halogen.
SMILES,HSD17B inh
O=C(COC(=O)c1cncc(Br)c1)NCCC1=CCCCC1,-6%
COc1ccc(C)cc1S(=O)(=O)N(CC(=O)O)c1ccc(F)cc1,2%
COc1ccc(Cl)cc1NC(=O)C1CSC(c2ccncc2)=N1 (stereo not drawn),-20%
NC1=NC(c2ccc(Br)cc2)n2c(nc3ccccc32)N1 (stereo not drawn),1%
O=C(c1cc2nc(-c3ccccc3)cc(C(F)(F)F)n2n1)N1CCOCC1,-7%
CCCCC(=O)Nc1ccc(Cl)cn1,2%
O=C(/C=C/Nc1ccc(F)cc1)c1ccco1,-5%
COCCn1nnnc1CN1CCN(c2cccc(C(F)(F)F)c2)CC1,7%

# Next section:
SMILES,HSD17B inh
O=C(CCCC(=O)OCC(=O)NC1CCCC1)Nc1ccccn1,10%
CCOc1ccc(C(=O)N2CCN(c3ccccc3)CC2)cc1OCC,5%
Cc1ccc(-c2ccc(=O)n(CC(=O)NCCN(C)C)n2)cc1,-16%
C=C1C2CC[C@@]3(C)C(c4ccoc4)OC(=O)C[C@@]13OC1CC(=O)C(C)(C)C(CC(=O)OC)[C@]12C (stereo partly drawn),-5%
COc1cc(C(=O)NCc2ccc3c(c2)OCO3)ccc1OCc1c(C)noc1C,2%
CCCCOC(=O)Nc1ccc(C(=O)OC)cc1,3%
Cc1cc(C)c2nc(NC3=NCN(CCN4CCOCC4)CN3)nc(C)c2c1,-3%
C=C(C)c1cccc(C(C)(C)NC(=O)N2CCN(CC(N)=O)CC2)c1,1%
O=C(CNS(=O)(=O)c1cccs1)N1CCc2ccccc2C1,7%
NC(N)=NC(N)=Nc1ccccc1 (tested in a mixture with another compound),3%[11.4 µM]
CCn1c2ccccc2c2nnc(SCC(=O)Nc3ccc4c(c3)OCO4)nc21,-10%
CCN1C2=NCCCN2c2ccccc21,14%
COc1ccc2cc3c(N)nn(C(=O)Cc4ccccc4OC)c3nc2c1,-7%
COC(=O)Cn1c(C)nc2c(sc3nc(C)cc(C)c32)c1=O,4%
Cc1onc(-c2ccccc2Cl)c1C(=O)NCc1ccc(N2CCCC2=O)cc1,-1%
O=C(CSc1ncn[nH]1)c1ccco1,-8%
Cc1ccc(-c2nnn(Cc3nc4ccccc4s3)n2)cc1,-2%
CC(C)(C)OC(=O)NCC(=O)N1CCC(C(=O)O)CC1,4%
C=C1CCC(=O)C(C)CCC2C1CC2(C)C (stereo not drawn),1%
CCN(CCCNC(=O)CC1Oc2ccc(C)cc2NC1=O)Cc1ccccc1 (stereo not drawn),?
O=c1[nH]c(/C(=N\O)c2ccccc2)no1,3%
COc1cc(C(=O)NCC(c2cccnc2)N2CCN(c3ccccc3)CC2)cc(OC)c1OC (stereo not drawn),-2%
COc1cccc(C(=O)N(CN2CCCC2=O)c2cc(C)on2)c1,2%
O=C(CCc1ccccc1)Nc1nc2n(n1)C(c1ccc(Cl)cc1)CC(=O)N2 (stereo not drawn),12%
CCOc1ccc(N2CC(C(=O)NCCc3ccc(OC)c(OC)c3)CC2=O)cc1 (stereo not drawn),-10%

# (listing goes on)
SMILES,HSD17B inh
CCOCc1cc(C2NC(=O)NC(C)=C2C(=O)OCC)ccc1OC (stereo not drawn),11%
COc1ccc(C(=O)CSc2nnc(C(CO)NC(=O)c3ccc(OC)cc3)n2C)cc1 (stereo not drawn),7%
CCCn1c(NCc2ccco2)nc2ccccc21,-18%
CCOC(=O)c1cnc2sc3c(n2c1=O)CCCC3,32µM*
Cn1c(-c2nonc2NC(=O)c2ccc(C(C)(C)C)cc2)nc2ccccc21,2%
c1ccc(C[C@@H](Nc2cccnc2)c2ccccc2)cc1,1%[11.4 µM]
CC1CC(C)CN(c2nc3c(c(=O)n(C)c(=O)n3C)n2C)C1 (stereo not drawn),-3%
O=S(=O)(c1ccccc1)N1CCN(Cc2cccc(Cl)c2)CC1,3%
O=C(CSc1nnc(-c2ccccn2)n1Cc1ccccc1)Nc1ccc2c(c1)OCO2,3%
O=C(Nc1ccccc1C(=O)N1CCN(c2ccccc2)CC1)c1ccco1,-2%
O=C(CN(c1ccc2c(c1)OCCO2)S(=O)(=O)c1ccccc1)Nc1ccc2c(c1)OCO2,?
CCn1c(SCC(=O)Nc2ccc3c(c2)OCO3)nc2c1c(=O)n(C)c(=O)n2C,0%
Cc1[nH]nc2c1C(c1cccnc1)N(c1ccc(Br)cc1)C2=O (stereo not drawn),2%
Nc1nc(SCc2ccccc2)[nH]c(=O)c1-c1ccccc1,1%
COc1ccccc1OCC(O)Cn1c(=N)n(Cc2ccccc2)c2ccccc21 (stereo not drawn),-1%
O=c1cc(N2CCN(c3ccccc3F)CC2)[nH]c(=O)n1-c1ccc(Br)cc1,5%
CC1CCN(S(=O)(=O)c2ccc3[nH]c(=O)c(=O)[nH]c3c2)CC1,32µM*
O=C(c1cccnc1)N1CCN(S(=O)(=O)c2ccc(S(=O)(=O)N3CCCC3)cc2)CC1,-3%
COc1ccc(Cl)cc1S(=O)(=O)N1CCN(c2ccc(F)cc2)CC1,-6%
O=C1CC(=O)N(Cc2ccco2)C(=O)N1,?
O=C(NCc1cccs1)C1CC(=O)N(c2ccc(F)cc2)C1 (stereo not drawn),10%
COc1ccccc1/C=c1\sc2nc(-c3cccs3)nn2c1=O,-5%
COC(=O)[C@@]1(Cc2ccc(F)cc2)[C@H]2c3cc(C(=O)N4CCCC4)n(CC4CC4)c3C[C@H]2CN1C(=O)c1ccccc1,-26%
COc1ccc(N2CCN(C(=O)c3ccc(OCC4CCCO4)cc3)CC2)cc1 (stereo not drawn),4%
Cc1cccc(C)c1OCC(=O)Nn1c(C)nc2ccccc2c1=O,-12%

# (continued)
SMILES,HSD17B inh
Cc1nn(Cc2ccccc2)c(C)c1NC(=O)c1cc(-c2ccc3c(c2)OCO3)on1,-11%
Cc1cc(C)n2nc(SC3CCCCN(C(=O)c4ccc(F)cc4)C3=O)nc2n1 (stereo not drawn),8%
C=C(C)Cn1c(SCC)nc2ccccc2c1=O,2%
Cn1cccc1C(=O)N1CCC2(CC1)CN(C(c1ccccc1)c1ccccc1)C2,-9%
CC(C)CCNC(=O)C1CCCN(S(=O)(=O)c2ccc(F)cc2)C1 (stereo not drawn),-3%
Cc1nc(NC2CCCCC2)c2nc(-c3ccccc3)n(C(C)CN(C)C)c2n1 (stereo not drawn),25µM*
COC(=O)CC1C(=O)NCCN1C(=O)c1ccccc1 (stereo not drawn),2%
CCCCn1c(SCC(=O)NCC2CCCO2)nc2ccc(N3CCOCC3)cc2c1=O (stereo not drawn),32µM*
COc1ccc(N2CCN(Cc3nc4ccccc4c(=O)[nH]3)CC2)cc1,-7%
COc1ccc(CNc2ccnc(-c3cccc(NS(C)(=O)=O)c3)n2)c(OC)c1,-10%
CO[C@@H]1COC(=O)[C@H](C)NC(=O)[C@@H](C)COC(=O)CCC[C@H]1C,3%[11.4 µM]
CCOc1ccc(N(Cc2cc3cc(OC)ccc3[nH]c2=O)C(=O)C2CCCO2)cc1 (stereo not drawn),32µM*
COc1ccc(S(=O)(=O)N2CCCCC2)cc1C(C)C,-5%
CC(C)(C)N1C(=O)[C@H]2[C@@H]3[C@H](O)[C@H](O)CC(=O)[C@H]3CC[C@H]2C1=O,0%&5%[11.4 µM]
COCCn1c(C(=O)N2CCCC2)cc2c1C[C@H]1CN(C(=O)c3ccccc3)[C@@](Cc3ccc(OC)cc3)(C(=O)OC)[C@@H]21,5%
COc1cc(NS(C)(=O)=O)c(OC)cc1NC(=O)c1ccccc1,-4%
O=C(NCCN1CCOCC1)NC1(C(F)(F)F)Oc2ccccc2O1,-22%
COc1ccc(N(CC(=O)NCCSC(C)(C)C)S(C)(=O)=O)c(OC)c1,-3%

# Some of the entries above in another layout.
molecule | HSD17B inh
COc1ccccc1/C=c1\sc2nc(-c3cccs3)nn2c1=O | -5%
COC(=O)[C@@]1(Cc2ccc(F)cc2)[C@H]2c3cc(C(=O)N4CCCC4)n(CC4CC4)c3C[C@H]2CN1C(=O)c1ccccc1 | -26%

# Reformatted with tabs: 3 of the compounds above.
SMILES	HSD17B inh
CC(C)CCNC(=O)C1CCCN(S(=O)(=O)c2ccc(F)cc2)C1 (stereo not drawn)	-3%
COc1ccc(N(CC(=O)NCCSC(C)(C)C)S(C)(=O)=O)c(OC)c1	-3%
O=C(NCCN1CCOCC1)NC1(C(F)(F)F)Oc2ccccc2O1	-22%
